Bioassay records: PubChem BioAssay, several laboratories
HSV augment: enhancers of HSV replication in host cells, fold increase, host cell viability. maximum fold increase. HSV replication augmentation in cells. 220,000 compounds, 0.005% hits. AID 1956, 2009;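 active = peak rise of 1.5-fold or more in the series; inconclusive = self-fluorescent or not available for retest; tested in PC3 cells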;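 also: first round at 10 µM; read as green reporter fluorescence; hits show the peak of a series up to 25 µM; 1 = signal of infected wells without compound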
GALR2 ag: GALR2 receptor agonists, primary screen, cell-based. Galanin receptor type 2 (Homo sapiens), O43603. GALR2-expressing cells, agonist activation read-out. activation, %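 (tested at 5 µM)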. 140,000 compounds, 0.48% hits. AID 803, 2007;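 active = above mean plus 3 SD of all compounds, about 5% in these data, not always enough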;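 also: 0% = vehicle buffer wells and 100% = reference agonist at full effect; tested in CHO reporter cells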
Target sequence (O43603 whole entry, looked up): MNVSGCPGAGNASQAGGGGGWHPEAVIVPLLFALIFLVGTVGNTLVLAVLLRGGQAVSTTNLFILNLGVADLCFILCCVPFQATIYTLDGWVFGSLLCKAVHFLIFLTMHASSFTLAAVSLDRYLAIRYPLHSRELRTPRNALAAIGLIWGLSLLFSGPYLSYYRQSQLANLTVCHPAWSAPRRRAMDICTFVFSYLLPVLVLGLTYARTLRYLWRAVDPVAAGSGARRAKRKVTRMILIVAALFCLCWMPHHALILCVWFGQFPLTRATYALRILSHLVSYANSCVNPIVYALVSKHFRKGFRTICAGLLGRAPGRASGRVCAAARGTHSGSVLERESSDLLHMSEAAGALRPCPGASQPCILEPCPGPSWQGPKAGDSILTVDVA
Insulin prom inh: inhibitors of insulin promoter-driven GFP, primary screen, imaging, TRM-6 cells (human fetal islet line), eGFP reporter, cell count. inhibition, % at 2 µM. 130,000 compounds, 0.9% hits. AID 1273, 2008. reporter expression induced with tamoxifen;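 active = inhibition above the mean plus 3 SD, with well images judged a real hit on visual review, cut at about 60% in these data, passing the limit was not always enough; inconclusive = inhibition over the cutoff but images rejected on review; inactive = inhibition not above the cutoff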
PKD1 inh: inhibitors of human PKD1 kinase, biochemical, fluorescence polarization; AID 797, 2007; inhibition, %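 (about 10 µM by stock and volumes)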; PKD1 kinase fluorescence polarization assay; 200,000 compounds, 0.056% hits; Serine/threonine-protein kinase D1 (Homo sapiens), Q15139;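 active = inhibition of 50% or more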;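 also: controls were vehicle for no effect and a reference inhibitor for full effect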
RGS16-Gao HTS: modulators of RGS16 binding to Galphao, primary screen, biochemical, human proteins, multiplexed bead flow cytometry. Regulator of G-protein signaling 16 (Homo sapiens) + Guanine nucleotide-binding protein …. bead-based flow cytometry RGS16-Galphao binding, fluorescence; actives lie on both sides. 220,000 compounds, 0.38% hits. binding response (% of control), % at 10 µM. AID 1441, 2008;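 active = below 25% or above 175%, edge rows of some plates excepted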;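 also: Galphao activated by GDP with aluminum fluoride before binding; 100% = wells without compound and 0% = beads without RGS; some results beyond the cut were filed as inactive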
Target sequence (O15492 whole entry, looked up): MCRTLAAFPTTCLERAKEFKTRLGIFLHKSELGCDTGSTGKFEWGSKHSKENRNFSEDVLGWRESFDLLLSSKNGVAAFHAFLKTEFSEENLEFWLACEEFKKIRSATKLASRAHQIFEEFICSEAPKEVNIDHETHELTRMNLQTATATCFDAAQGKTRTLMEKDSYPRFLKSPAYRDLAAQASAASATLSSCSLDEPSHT
Target sequence (P09471 whole entry, looked up): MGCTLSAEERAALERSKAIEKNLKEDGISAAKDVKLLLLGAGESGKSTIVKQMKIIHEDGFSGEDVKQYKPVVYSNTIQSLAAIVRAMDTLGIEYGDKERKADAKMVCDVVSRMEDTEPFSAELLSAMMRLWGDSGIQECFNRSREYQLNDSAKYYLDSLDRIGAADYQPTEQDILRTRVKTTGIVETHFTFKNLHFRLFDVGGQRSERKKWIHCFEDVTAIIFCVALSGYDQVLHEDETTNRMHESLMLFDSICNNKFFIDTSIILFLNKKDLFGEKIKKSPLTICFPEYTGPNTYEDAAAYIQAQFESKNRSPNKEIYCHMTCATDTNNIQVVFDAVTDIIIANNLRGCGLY
Insulin prom inh cell count: further read-out of Insulin prom inh, marked with its call; normalized cell count, %; measured here: cell count, toxicity; reference of the scale not given here;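 cells exposed to compound for 48 h; stained nuclei by imaging scaled within each plate; lower means fewer cells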
HSV augment primary fold: further read-out of HSV augment, marked with its call; fold increase; compound at 10 µM; measured here: primary screen fold increase 10 uM; tested in PC3 cells;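 GFP signal in the first replicate; 1 = infected wells without compound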
Active calls of the source: *; i = inactive; ? = inconclusive; nt = not tested or not shown.

Sample of the layout (5 entries):
SMILES	HSV augment	HSV augment primary fold	GALR2 ag	Insulin prom inh	Insulin prom inh cell count	PKD1 inh	RGS16-Gao HTS
CN(c1ccccc1)S(=O)(=O)c1ccc(NC(=O)C2CCCCC2C(=O)O)cc1 (configuration not stated)	i	0.91	-4.3	-29	125	-10	55
CC1=C(C(=O)OCCOc2ccccc2)C(c2coc3ccccc3c2=O)C2=C(CCCC2=O)N1 (configuration not stated)	i	0.91	nt	8	86	-1	106
COc1ccc(OC)c(Nc2ncnc3c2cnn3-c2cccc(C)c2)c1	i	0.68	-1.2	12	79	10	124
CC(=O)N(Cc1cccs1)C1CCOC(C)(C)C1 (configuration not stated)	i	0.94	36*	-17	257	-6	188
COc1ccccc1N1CCN(C(=O)Cn2nc(C(F)(F)F)c3c2CCC3)CC1	i	0.9	-2.2	-11	169	-9	97

This part in full, previewed entries included:
SMILES	HSV augment	HSV augment primary fold	GALR2 ag	Insulin prom inh	Insulin prom inh cell count	PKD1 inh	RGS16-Gao HTS
CN(c1ccccc1)S(=O)(=O)c1ccc(NC(=O)C2CCCCC2C(=O)O)cc1 (configuration not stated)	i	0.91	-4.3	-29	125	-10	55
CC1=C(C(=O)OCCOc2ccccc2)C(c2coc3ccccc3c2=O)C2=C(CCCC2=O)N1 (configuration not stated)	i	0.91	nt	8	86	-1	106
COc1ccc(OC)c(Nc2ncnc3c2cnn3-c2cccc(C)c2)c1	i	0.68	-1.2	12	79	10	124
CC(=O)N(Cc1cccs1)C1CCOC(C)(C)C1 (configuration not stated)	i	0.94	36*	-17	257	-6	188
COc1ccccc1N1CCN(C(=O)Cn2nc(C(F)(F)F)c3c2CCC3)CC1	i	0.9	-2.2	-11	169	-9	97
COc1ccc(-c2nc3c4ccccc4[nH]c(=O)n3n2)cc1	i	0.81	-0.5	-6	93	-8	114
CC(NC(=O)CSC(=S)N(C)C)C12CC3CC(CC(C3)C1)C2 (configuration not stated)	i	0.91	0.7	nt	nt	4	101
O=S1(=O)CCC(N=Nc2c(O)n(Cc3ccccc3)c3ccccc23)C1 (configuration not stated)	i	1	nt	nt	nt	nt	104
COc1ccc(S(=O)(=O)Nc2ccccc2C(=O)NCc2ccco2)cc1	i	0.97	0.2	0	109	3	99
O=c1cc(Nc2ccc3c(c2)OCO3)[nH]c(=O)n1-c1ccc(Br)cc1	i	0.84	-1.1	64	43	-4	98
OCC(C#CCN1CCCCC1)NCc1ccccc1 (configuration not stated)	i	1	-1.1	nt	nt	-22	95
CC(=O)OC(C(=O)NC1CCCCC1)c1ccccc1Cl (configuration not stated)	i	0.9	nt	nt	nt	-1	109
COc1ccc2[nH]c(C(=O)O)c(NS(=O)(=O)c3ccc(Cl)s3)c2c1	i	0.88	-1.8	-29	132	-5	97
Cc1[nH]c2ccc(F)cc2c(=O)c1SC(F)(F)C(F)C(F)(F)F (configuration not stated)	i	0.98	-2.2	-3	87	5	103
CCc1ccc(NC(=O)Nc2c(C)n(C)n(-c3ccccc3)c2=O)cc1	i	1	nt	56	103	-7	103
CC(C)OC(=O)C1C2C=CC3(CN(CC4CCCO4)C(=O)C13)O2 (configuration not stated)	i	0.9	-1.8	-89	104	-5	99
CC(C)C[C@H](NC(=O)c1nc[nH]c1C(=O)N1CCN(c2ccccc2)CC1)C(=O)OC(C)(C)C	i	0.73	nt	nt	nt	nt	94
CC(C(=O)N1CCCC1)N1CCN(c2ccccc2O)CC1 (configuration not stated)	i	0.98	nt	nt	nt	0	100
CCOc1ccc(NC(=O)CN(C)CC(=O)Nc2ccc(F)c(F)c2F)cc1OCC	i	0.93	nt	nt	nt	-5	106
CC(C)=CCN1CCN(Cc2ccoc2)CC1CCO (configuration not stated)	i	1.1	nt	nt	nt	-6	106
O=c1c2ccccc2nnn1COc1ccc(Cl)cc1Br	i	0.93	nt	nt	nt	-1	102
COc1ccc(C(=O)NC2=NCCS2)cc1S(=O)(=O)N1CCCCC1C (configuration not stated)	i	0.97	nt	0	93	2	116
COC(=O)c1ccc(-n2c(C)cc(C(=O)CCl)c2C)cc1	i	1	nt	43	120	1	100
O=C1CN(C(=O)CNC(=O)c2ccccc2Cl)c2ccccc2N1	i	0.96	nt	nt	nt	3	95
CN1C(=S)SC2CS(=O)(=O)CC21 (configuration not stated)	i	0.72	nt	nt	nt	nt	100
COc1ccc(NCC(=O)Nc2cc(S(=O)(=O)N3CCOCC3)ccc2N2CCOCC2)c(OC)c1	i	1.1	nt	nt	nt	nt	98
O=C(CSc1nccc(=O)[nH]1)NCc1ccc(Cl)cc1	i	0.89	nt	nt	nt	10	96
COc1ccc(CN(C(=O)c2cccs2)c2ccccc2C(=O)O)cc1	i	1	nt	nt	nt	nt	96
COc1cc(C2C=C(c3cccs3)Nc3ncnn32)cc(OC)c1OC (configuration not stated)	nt	nt	nt	nt	nt	2	98
Cn1c(=O)c(/C(N)=N/OC(=O)c2ccccc2)cn(-c2ccccc2)c1=O	i	1	nt	nt	nt	nt	117

Shown with each value named: 2 of the compounds above
SMILES: CN1C(=S)SC2CS(=O)(=O)CC21 (configuration not stated)
  HSV augment = i
  HSV augment primary fold = 0.72
  GALR2 ag = nt
  Insulin prom inh = nt
  Insulin prom inh cell count = nt
  PKD1 inh = nt
  RGS16-Gao HTS = 100

SMILES: CC(C(=O)N1CCCC1)N1CCN(c2ccccc2O)CC1 (configuration not stated)
  HSV augment = i
  HSV augment primary fold = 0.98
  GALR2 ag = nt
  Insulin prom inh = nt
  Insulin prom inh cell count = nt
  PKD1 inh = 0
  RGS16-Gao HTS = 100

Other results
SMILES	HSV augment	HSV augment primary fold	GALR2 ag	Insulin prom inh	Insulin prom inh cell count	PKD1 inh	RGS16-Gao HTS
COc1ccc(C[C@@H]2CN3C(=NC[C@@H]3C)N2C[C@H](C)NC(=O)CCC2CCCCC2)cc1	i	1.2	nt	nt	nt	-3	103
CCOC(=O)C1=C(CNCc2ccccc2Cl)NC(=O)NC1c1cccc([N+](=O)[O-])c1 (configuration not stated)	i	1	nt	nt	nt	-9	104
CCOC(=O)C(C)Oc1ccc(=O)n(-c2ccccc2)n1 (configuration not stated)	i	0.94	-0.9	nt	nt	-8	101
COC(=O)c1nn(-c2ccc(OC)cc2)c(=O)cc1Oc1ccccc1	i	0.99	-0.8	nt	nt	1	92
O=C(Nc1cccc(NS(=O)(=O)c2ccc(S(=O)(=O)NC3CC3)cc2)c1)c1ccccn1	i	0.92	-0.7	nt	nt	-12	101
CN1CCC(=O)N(CCSc2ccc(Br)cc2)CC1	i	1.2	nt	nt	nt	nt	101
Cc1cc(NC(=O)CSc2ccc3nnc(-c4cccc(F)c4)n3n2)no1	i	0.89	-1.0	-17	109	-7	92
O=C(Nc1nnc(-c2ccccc2)s1)c1cc(S(=O)(=O)N2CCOCC2)c(Cl)cc1Cl	i	0.79	-1.1	nt	nt	4	111
Cc1c(NC(=S)NC(=O)C(c2ccccc2)c2ccccc2)cccc1C(=O)O	i	0.85	-0.6	-6	106	-2	107
COc1ccccc1C1/C(=C(\O)c2c(C)nc3c(C)cccn23)C(=O)C(=O)N1CCCN(C)C (configuration not stated)	nt	nt	-0.8	-37	98	-6	nt
CCn1nnnc1SCC(=O)c1ccc(NC(C)=O)cc1	i	0.95	-2.5	-21	75	-12	100
COCCNCCCOc1ccc(Cl)cc1Br	i	0.93	nt	nt	nt	-13	101
Cc1ccc2c(c1)-c1nc3ccccc3cc1C2=NC1CCCCC1	i	0.97	0.3	nt	nt	-11	103
COc1ccc(CCNC(=O)CCn2cccc2)cc1OC	i	1	-1.0	14	104	12	98
CCc1nc(SCC(=O)N2CCN(C(=O)c3ccco3)CC2)c2c3c(sc2n1)CCCC3	i	0.99	0.6	-41	40	-17	105
O=C(NCc1c(F)cccc1F)c1cc(COc2c(F)cccc2F)on1	i	0.97	nt	43	126	1	110
COc1ccccc1NC(=S)NCCSc1ccc(C)cc1	i	1.1	-1.1	nt	nt	0	97
CCN(CCNC(=O)C1CCC(=O)N1Cc1ccc(C)cc1)c1ccccc1 (configuration not stated)	i	0.96	nt	0	67	2	103
CCC(C)NC(=O)C1c2cc(OC)c(OC)cc2C(=O)N(C)C1c1cccs1 (configuration not stated)	i	0.88	0.4	-14	157	-1	104
Cc1ccc(C(=O)c2ccc([N+](=O)[O-])cc2)cc1	i	0.79	-1.5	-19	99	5	111
Cc1ccc(N=Nc2c(N)[nH]n3c(=O)c4c(nc23)CCCC4)cc1	nt	nt	-1.3	43	97	0	95
CCC(=O)c1c(NC(CC)CO)cc(C)oc1=O (configuration not stated)	i	0.9	nt	59	93	-3	90
CCOC(=O)c1cc(NC(=O)CSc2nnc(CN3CCOCC3)n2C)ccc1Cl	i	0.99	-0.6	-10	81	-7	106
O=C(CSCc1ccc(Cl)cc1)N/N=C/c1ccc(OCC(=O)Nc2ccccc2)cc1	i	0.87	-2.4	nt	nt	5	102
Cn1c2c(c(=O)n(C)c1=O)C(C(F)(F)F)(C(F)(F)F)N=C(C1CCCCC1)N2	i	0.66	2.1	42	130	-2	109
CCc1nnc(SCc2ccc(OC(C)C)cc2)n1N	i	1	-1.1	nt	nt	2	101
COc1ccc(OC)c(NC(=O)COC(=O)CNC(=O)c2ccc(OC)c(OC)c2)c1	i	0.91	-0.4	nt	nt	-8	77
COc1cccc(CSc2nc3cc4c(cc3cc2C)OCCO4)c1	i	0.81	0.1	-3	89	1	111
COc1ccc(CN(CCC(c2ccccc2)c2ccco2)C(=O)c2ccco2)cc1 (configuration not stated)	i	1.3	0.6	2	101	-9	105
Cc1cccc(C(=O)NC(=S)Nc2ccc(S(=O)(=O)N(C)c3ccccc3)cc2)c1	nt	nt	-1.2	-13	85	3	112
Cc1ccnn1CCC(=O)N1CCCC(CCC(=O)N2CCN(c3ccccn3)CC2)C1 (configuration not stated)	i	1	nt	nt	nt	1	97
CN(C(=O)c1ccc(C(=O)N(C)C2CCCCC2)cc1)C1CCCCC1	nt	nt	0.3	-77	122	-1	nt
Cc1cc(C(=O)Nc2nnc(C3CCCCC3)s2)no1	i	0.78	0.3	-7	98	-13	102
Cc1ccc(C)c(OCc2ccc(C(=O)N3N=C(C(F)F)CC3(O)C(F)F)o2)c1 (configuration not stated)	i	0.93	-0.6	-20	183	8	104
CCOC(=O)N1CCN(C(=O)CCn2c(=S)[nH]c3ccsc3c2=O)CC1	i	0.9	nt	7	90	-6	100
Cc1ccnc(NS(=O)(=O)c2ccc(NC(=O)C34CC5CC(C)(CC(C)(C5)C3)C4)cc2)n1	i	0.92	-3.3	35	54	-10	103
O=C(O)Cc1c(-c2ccccc2)c2cc(Br)ccc2[nH]c1=O	i	1	nt	nt	nt	nt	103
CN=c1scc(-c2ccccc2F)n1/N=C/c1ccc(O)c(O)c1O	?	nt	nt	nt	nt	-5	80

Taken from the entries so far (three entries):
SMILES	HSV augment	HSV augment primary fold	GALR2 ag	Insulin prom inh	Insulin prom inh cell count	PKD1 inh	RGS16-Gao HTS
Cc1ccnc(NS(=O)(=O)c2ccc(NC(=O)C34CC5CC(C)(CC(C)(C5)C3)C4)cc2)n1	i	0.92	-3.3	35	54	-10	103
O=C(O)Cc1c(-c2ccccc2)c2cc(Br)ccc2[nH]c1=O	i	1	nt	nt	nt	nt	103
CN=c1scc(-c2ccccc2F)n1/N=C/c1ccc(O)c(O)c1O	?	nt	nt	nt	nt	-5	80
